HTT promoter inh: Primary qHTS for Identification of Small Molecule Inhibitors of Huntingtin Promoter Activity | HEK293 HTT promoter firefly luciferase reporter (activity 0% = vehicle and -100% = no light), 24 h | Potency, µM (series often up to 57.5 µM), without a hit: at the highest dose activity change, negative = inhibition, usual class: inhibitors | actives 0.93% (n = 48,000) | AID 1508623, 2021; active = well fitted inhibition curve with a large enough effect; inconclusive = small, poorly fitted or top-dose-only effect; inactive = no such curve, though single readings can be large or run the other way; also: nearly all actives have a fitted effect of over 50% in size
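Firefly luciferase signal from promoter-reporter HEK293 cells was scaled between vehicle (0%) and zero RLU (-100%). Compounds were tested at final concentrations of up to 57.5 uM over 24 h at 37 degrees C. PTC124 at 50 uM final served as control inhibitor.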
PMP22 txn: Cell-based coincidence reporter assay to measure PMP22 gene transcription in S16 Pmp22-F2sN cells - Primary screen | S16 Pmp22-F2sN Schwann cells (luciferase reporters placed in the Pmp22 gene), FLuc/NLuc coincidence luminescence, 24 h | Potency, µM (titrated, usually from 57.5 µM), without a hit: at the highest dose activity change, negative = inhibition, actives largely listed as inhibitors | actives 2% (n = 43,000); active = clear falling dose curves in both reporters; inconclusive = both reporters move, but less clearly or upward; inactive = either reporter flat; the % is the NLuc reporter signal; also: % is scaled to controls: 0 for no effect and ±100 for the full control effect; some results filed as inactive show a strong effect at the top dose
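Reporter cells (S16 Pmp22-F2sN, 500–1,000 per well) exposed to compounds for 24 h, 37C, 5% CO2; lysis with FLuc read after 10 min, then Stop&Glo and NLuc read after 10 min.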
* = called active by the depositor; ? = inconclusive; . = not tested or not shown; & = joins results of further samples; [ ] = another dose, or the depositor's remark. Potency is read from the fitted curve at half-maximal effect.

molecule | HTT promoter inh | PMP22 txn
Cc1cc(-c2ccc(C)c(S(=O)(=O)N(C(C)C)C3CCCCC3)c2)on1 | -10.3% | ?
O=C(NC1CC(=O)N(c2cccc(F)c2)C1)c1ccc(S(=O)(=O)N2CCCCC2)cc1 (configuration not stated) | -8.6% | -5.8%
CCN(CC)CCOCCOC(=O)C1(c2ccccc2)CCCC1 | -13.3% | .
O=C(NCc1cccs1)c1ccc(Cn2c(SCc3ccccc3)nc3cccnc32)cc1 | -30.3% | -22.6%
Cc1c(C(=O)NCc2cccc(Br)c2)oc2ccc3c(c12)C(=O)CC(C)(C)O3 | -8.6% | -26.7%
COc1cccc(CNC(=O)c2ccc(CS(=O)Cc3ccc(Cl)cc3)o2)c1 (configuration not stated) | -21.7% | -29.5%
COc1cc(Cl)c(C)cc1NC(=O)Cn1ncc2c(=O)oc3ccccc3c21 | -4.4% | -2.5%
O=C1c2c(O)cc(O)cc2O[C@H](c2cc(O)c(O)c(O)c2)[C@H]1O | -12.1% | .
CN(C)c1ccc(N=NS(=O)(=O)O)cc1 | -15.2%[116 µM] | .
COC(=O)c1scc(-c2ccc(C)cc2)c1S(=O)(=O)N1CCN(c2ccc(F)cc2)CC1 | -24.9% | -2.8%
CCC(=O)N1CCc2cc(OC)c(OC)cc2C1COc1ccccc1OC (configuration not stated) | -14.6% | -19.7%
CCOc1ccccc1NC(=O)c1c(NC(=O)c2ccncc2)sc2c1CCC(C(C)(C)C)C2 (configuration not stated) | -1.0% | -11.5%
COc1ccc(CNC(=O)c2cc3cc4ccc(C)cc4nc3o2)cc1 | 4.4% | 3.3%
Cc1nc(-c2ccc(F)cc2)sc1CCNC(=O)c1ccc(C(C)(C)C)cc1 | ? | 11.5%
O=C(CCS(=O)(=O)c1cc2c(cc1Cl)NC(=O)CO2)NCc1ccccc1 | -5.4% | -21.1%
CN(C)c1ccc(C(CNC(=O)c2c(F)cccc2Cl)N2CCOCC2)cc1 (configuration not stated) | 37.7%[activator] | 4.1%
CC(=O)O[C@]1(C(C)=O)CC[C@H]2[C@@H]3C=C(Cl)C4=CC(=O)CC[C@]4(C)[C@H]3CC[C@@]21C | -7.0% | .
CC(C)(C)c1ccc(C(=O)Nc2onc3c2CCCC3)cc1 | ? | -24.5%
CN(C)CCCN1c2ccccc2CCc2ccccc21 | -8.2% | .
Cc1ccc(Cl)cc1N1CCN(C(=O)CCNS(=O)(=O)c2ccc3c(c2)CCN3C(=O)C2CC2)CC1 | ? | ?

A second format for two compounds above:
Below each compound: HTT promoter inh | PMP22 txn
> COc1ccc(CNC(=O)c2cc3cc4ccc(C)cc4nc3o2)cc1
 : 4.4% | 3.3%
> Cc1nc(-c2ccc(F)cc2)sc1CCNC(=O)c1ccc(C(C)(C)C)cc1
 : ? | 11.5%

Continuation.
molecule | HTT promoter inh | PMP22 txn
C#C[C@]1(O)CC[C@H]2[C@@H]3CCC4=Cc5oncc5C[C@]4(C)[C@H]3CC[C@@]21C | -17.5% | .
Cc1ccc(Nc2nnc(-c3ccc(C)c(S(=O)(=O)N4CCN(C)CC4)c3)c3ccccc23)c(C)c1 | 8.2%[11.5 µM] | ?
Cc1ccc(NC(=O)CN2C(=O)CCc3cc(S(=O)(=O)N4CCCCC4)ccc32)cc1C | -13.6% | -15.7%
CC(C)(C)C(=O)OCOC(=O)[C@@H]1N2C(=O)[C@@H](NC(=O)[C@H](N)c3ccccc3)[C@H]2SC1(C)C | 2.6% | .
Cc1cc(NC(=O)c2cc(Cl)ccc2Cl)ccc1-c1cc2ccccc2oc1=O | 10µM* | 6.8%
Cc1cc(F)ccc1NS(=O)(=O)c1ccc(-n2cccn2)cc1 | ? | 15µM*
Cc1ccc(C(c2c(O)cc(C)n(Cc3ccco3)c2=O)N2CCC(C)CC2)cc1 (configuration not stated) | -5.8% | -5.7%
CCOc1cc(CNc2ccc(O)cc2)cc(Cl)c1OCc1ccccc1 | -28.2% | ?
Cc1cccc(N2C(=O)N(Cc3cccc(C#N)c3)c3ccccc3S2(=O)=O)c1 | ? | -3.2%
COc1cccc(NS(=O)(=O)c2ccc3[nH]cc(C(=O)NC4CCCCC4)c(=O)c3c2)c1 | ? | ?
CC(=O)Nc1ccc(NC(=O)CCCn2nc(C)c3sc4ccccc4c3c2=O)cc1 | 4.1% | -13.6%
Cc1cccc(Nc2c3c(nc4nncn24)CCC3)c1C | ? | ?
CCCCNC(=O)CCn1c(=O)c2ccccc2n(Cc2cc(C)ccc2C)c1=O | -15.7% | -26.5%
Cc1ccc2c(n1)Oc1ccc(C(C)C(=O)OCC(=O)N(C)C)cc1C2 (configuration not stated) | 22.9%&34.9% | .
CC(C)Cn1c(=O)c2ccccc2n2c(CCC(=O)N3CCN(c4cccc(Cl)c4)CC3)nnc12 | 4.4% | ?
Cc1ccc(-n2c(=O)c3cccnc3n2CC(=O)Nc2ccc(Br)cc2)cc1C | -10.2% | -9.0%
COc1ccc(OC)c(NC(=O)CSC2=Nc3ccccc3C3=NC(CCC(=O)NC4CCCCC4)C(=O)N23)c1 (configuration not stated) | -7.5% | -10.8%
CCn1c(-c2ccc(S(=O)(=O)N3CCOCC3)cc2)csc1=Nc1ccc(C)c(Cl)c1 | -12.2% | ?
COc1ccccc1NC(=O)CSc1nc(-c2cccc(Cl)c2)nc2c1Cc1c(CO)cnc(C)c1O2 | -16.3% | -8.1%
O=C(NCCc1ccc(Cl)cc1)c1ccc(Cn2c(=O)[nH]c3ccccc3c2=O)cc1 | -8.6% | 3.18µM*

Additional results.
molecule | HTT promoter inh | PMP22 txn
COc1c2occc2cc2ccc(=O)oc12 | 3.2%&19.9% | .
CCN1C(=O)C(O)(c2c[nH]c3ccccc23)c2cc(Br)ccc21 (configuration not stated) | -24.9% | ?
Cc1cc2oc(C(=O)Nc3sc4c(c3C(=O)NCC3CCCO3)CCC4)cc(=O)c2cc1C (configuration not stated) | -29.0% | -0.5%
CCOc1ccc(C2c3c(oc4ccc(C)cc4c3=O)C(=O)N2CCCN2CCOCC2)cc1 (configuration not stated) | -4.2% | 14.0%
CC(C)=CCC1C(=O)N(c2ccccc2)N(c2ccccc2)C1=O | -25.7% | .
Cc1cccc(C(=O)N2CCNC(=O)C2CC(=O)Nc2ccc(F)cc2)c1 (configuration not stated) | -8.1% | 21.7%
CC(C)(C)OC(=O)N1CCC(c2c(C(=O)N3CCN(c4cccc(Cl)c4)CC3)cnn2-c2cccc(Cl)c2)CC1 | -2.6% | ?
O=C1CN(C(=O)Nc2ccccc2Cl)C(c2ccccc2)c2c(sc3c2CCCC3)N1 (configuration not stated) | ? | -16.1%
Cc1ccc2c(c1)C(=O)OC(C(=O)Nc1ccc(C(=O)O)cc1)C2 (configuration not stated) | 4.6% | 18.5%
COC(=O)c1c(SCC(=O)Nc2cccc(C(F)(F)F)c2)[nH]c2ccccc2c1=O | -4.9% | -61.4%
CCCn1c2ccccc2c2cnn(CC(=O)N(C)c3ccc(F)cc3)c(=O)c21 | -4.5% | ?
CCOc1ccccc1Nc1nc2ccccc2nc1NS(=O)(=O)c1ccc(Cl)cc1 | -10.9% | 0.2%
Cc1ccc(CNC(=O)C2CCN(S(=O)(=O)c3cc(-c4noc(C)n4)ccc3C)CC2)cc1 | ? | -40.3%
NC(=O)c1ncn([C@@H]2O[C@H](CO)[C@@H](O)[C@@H]2O)c1N | 12.8% | .
COc1ccc(Cn2c(C(=O)O)c(CNC3CCCCCC3)c3ccc(OC)cc32)cc1 | -15.1% | 0.4%
CCOc1ccc2nc(N3CCCC(C(=O)Nc4cc(C)ccc4C)C3)sc2c1 (configuration not stated) | 38.3%[activator] | -2.1%
CC1CCCCN1c1cc2c(cc1F)c(=O)c(S(=O)(=O)c1ccccc1)cn2Cc1ccccc1 (configuration not stated) | -12.9% | ?
COc1cc2c(cc1OC)CN(C(=O)Nc1ccccc1)CC2 | -18.6% | 6.9%
Cc1ccc(-n2c(=O)c3c(c4cc(C)ccc4n3C)n(CC(=O)NCCC3=CCCCC3)c2=O)cc1 | 8.5% | -5.1%
Cc1cc(C)c2c(-n3cccc3)c(C(=O)NCCc3ccc(Cl)cc3)sc2n1 | ? | -14.3%

Additional compounds follow:
molecule | HTT promoter inh | PMP22 txn
C[C@H]1[C@@H](OC(=O)CCC(=O)O)O[C@@H]2O[C@@]3(C)CC[C@@H]4[C@H](C)CC[C@@H]1[C@@]24OO3 | ? | .
COc1ccc(-c2nc3n(n2)C(c2ccc(O)cc2)C(C(=O)Nc2cccnc2)=C(C)N3)cc1OC (configuration not stated) | -11.0% | -17.2%
Cc1cccc(C)c1NC(=O)c1csc2c1CCCC2 | -10.4% | -28.4%
COc1cccc(NC(=O)Cn2c(=O)n(CCCCC(=O)NCc3ccc4c(c3)OCO4)c(=O)c3ccccc32)c1 | -13.6% | ?
Cc1cc(=O)n(CC(=O)N2CCN(c3ccc(F)cc3)CC2)c2c1c(C)nn2C | ? | ?
NS(=O)(=O)c1ccc(NC(=O)c2ccc3c(c2)CCN3S(=O)(=O)c2ccccc2)cc1 | -22.9% | ?
Cc1cccc(S(=O)(=O)c2cn(C)c3cc(N4CCCCCC4)c(F)cc3c2=O)c1 | -12.3% | 3.7%
CCCCN(CC)C(=O)Cn1ncc2c3ccccc3n(CCC)c2c1=O | -12.7% | -7.7%
CCc1ccc(CNC(=O)CCn2c(=O)c3cccn3c3ccc(F)cc32)cc1 | 2.7% | ?
O=C(Nc1cccc(C(F)(F)F)c1)c1cc2nc(-c3ccco3)cc(C(F)(F)Cl)n2n1 | -1.0% | -19.8%
Cc1cc(C)cc(NC(=O)N2CCC(C(N)=O)(N3CCCCC3)CC2)c1 | 4.3% | 1.9%
Cc1cccc(C)c1-n1ncc(C(=O)N2CCN(c3ccccc3)CC2)c1C1CCN(C(=O)OC(C)(C)C)CC1 | ? | ?
Cc1ccc(NC(=O)CCSc2nc(-c3ccc4c(c3)OCO4)cc(C(F)(F)F)n2)cc1 | -7.6% | -24.2%
COc1ccc2c(Sc3ccccc3)c(C(=O)NCCN(C)C)[nH]c2c1 | ? | ?
Cc1ccc(NS(=O)(=O)c2c(C)nc3sc(C)c(C)n3c2=O)cc1F | ? | ?
O=C(CSc1n[nH]c(-c2ccc(F)cc2)n1)N1CCN(c2ccc(F)cc2)CC1 | ? | -39.6%
CCc1ccc2c(c1)NC(c1cccs1)=NC(c1ccc(F)cc1)=N2 | 16.1% | -11.0%
COc1ccc(C(=O)Nc2nnc(C)s2)cc1 | 69.3%[activator] | 1.7%
COc1cccc(-n2ccnc2SCC(=O)Nc2cccc(C)c2C)c1 | -16.5% | ?
CCc1ccc(C2CC(=O)c3c([nH]c(C(=O)OCC4CCCCC4)c3C)C2)cc1 (configuration not stated) | -0.6% | -18.8%

Later entries:
molecule | HTT promoter inh | PMP22 txn
Cc1ccc(-c2noc(CNC(=O)COc3cc(C)c(Br)c(C)c3)n2)cc1 | -1.2% | -2.6%
O=C(c1ccc(F)cc1F)N1CCC(c2noc(-c3ccc(S(=O)(=O)N4CCCC4)cc3)n2)CC1 | -7.3% | -6.9%
CCc1nn2c(=O)cc(COC(=O)C(CC)c3ccccc3)nc2s1 (configuration not stated) | ? | 6.8%
CC(=O)Nc1ccccc1-c1nc2ccccc2n(CC(=O)c2ccc(C)c(C)c2)c1=O | 7.1% | -8.1%
O=C(c1ccc2c(c1)N(Cc1ccc(F)cc1)CCS2)N1CCN(c2ccccc2)CC1 | ? | ?
Cc1ccc(CN(C(=O)COc2cccc([N+](=O)[O-])c2)c2ccccn2)cc1 | -38.8% | -18.1%
CCOC(=O)c1c(C)[nH]c(C)c1S(=O)(=O)NCC(=O)N(C)c1ccc(C)c(C)c1 | -18.8% | -29.9%
Cc1ccc(NC(=O)Cn2c(=O)ccc3cc(S(=O)(=O)N4CCC(C)CC4)ccc32)c(C)c1 | ? | -18.0%
Cc1cccn2c(=O)cc(COc3ccc(NC(=O)c4cccc(F)c4)cc3)nc12 | -4.7% | 6.8%
COc1ccc(Cl)cc1NC(=O)c1cn(C2CCCCC2)c(=O)c2c1c1ccccc1n2C | -14.7% | -0.7%
CCOC(=O)N1CCc2c(sc3c2c(=O)n(CCc2ccccc2)c(=O)n3Cc2cc(C)ccc2C)C1 | -7.9% | 3.3%
COc1ccc(C(=O)Nc2ccc3nc(SCC(=O)N4CCCC4)sc3c2)cc1 | -9.5% | 22.5%
CCOC(=O)c1cccc(NC(=O)c2ccc3c(Cl)c4c(nc3c2)CCC4)c1 | -5.0% | -13.1%
Cc1cccc(C)c1NC(=O)C(=O)NCC(c1cccnc1)N1CCc2ccccc21 (configuration not stated) | ? | ?
Cc1c(Cl)cccc1NC(=O)C(C)N(c1ccccc1)S(C)(=O)=O (configuration not stated) | -9.4% | -4.5%
COc1ccc(NC(=O)CCc2c(C)nc3cc(-c4cccc(F)c4)nn3c2C)cc1Cl | 2.24µM* | -13.6%

A portion of the library (hit frequency here may not be typical).
